ClpP mod: qHTS Assay for Activators of ClpP; ATP-dependent Clp protease proteolytic subunit (Bacillus subtilis (strain 168)), P80244; purified B. subtilis ClpP, FRET peptide cleavage, 20 min; Potency, µM (highest dose often 57.5 µM), without a hit: at the top dose activity change, negative = active; 340,000 tested, 1.9% active; active = well fitted falling curve with a large enough effect; inconclusive = small, poorly fitted or top-dose-only effect; inactive = no such curve, though single readings can be large or run the other way; further: potency means the concentration at half of the fitted maximal effect; the source files actives as falling curves though it sought activators and does not explain the sign; nearly all actives have a fitted effect of over 65% in size; many hits overshoot -100%
Target sequence (P80244 whole entry, looked up): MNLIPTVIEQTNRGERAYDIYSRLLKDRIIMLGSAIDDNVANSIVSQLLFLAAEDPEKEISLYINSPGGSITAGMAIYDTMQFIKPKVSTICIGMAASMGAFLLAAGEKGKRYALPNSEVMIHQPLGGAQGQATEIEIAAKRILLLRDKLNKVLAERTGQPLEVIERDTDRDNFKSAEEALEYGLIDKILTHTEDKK
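FRET quenching reversal measured ClpP activation: 10 microg/mL B. subtilis ClpP at pH 8 with the FRET-FV decapeptide, read at 430 nm after 320 nm excitation. The 20-min minus 0-min signal was scaled between DMSO/no-enzyme wells and ADEP (5.8 microM final).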
TRPV1 PAM: HTS Assay for Compounds that Act as Potentiators of the Vanilloid Receptor 1; potentiation, % at 8.33 µM; TRPV1-expressing cells, Fluo-8 calcium influx, capsaicin EC20 potentiation; host cell line not named in the record; control for the full effect not named in the record; AID 540277, 2011; Transient receptor potential cation channel subfamily V member 1 (Homo sapiens), Q8NER1; 320,000 tested, 0.02% active; active means potentiation above 80%; inconclusive means 30% to 80%; inactive means below 30%; further: 0% is about no effect
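Cells expressing TRPV1 were dye-loaded with Fluo-8 and read kinetically: 10 s baseline, 3 min after compound (agonist portion), then 2 min after EC20 capsaicin (allosteric enhancer portion). Calcium-bound dye fluorescence at 480/520 nm.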
Sfp inh: qHTS Assay for Inhibitors of Bacillus subtilis Sfp phosphopantetheinyl transferase (PPTase). 4'-phosphopantetheinyl transferase ffp (Bacillus subtilis), Q9F4F7. Biochemical Sfp PPTase activity, qHTS. Potency, µM, for the others: max response, negative = inhibition, usual class: inhibitors. 310,000 tested, 3.5% active. AID 1490, 2009; active means well fitted inhibition curve with a large enough effect; inconclusive means small, poorly fitted or top-dose-only effect, or another doubt; inactive means no such curve, though single readings can be large or run the other way;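 further: the enzyme is Sfp with the accession as filed and its product quenches rhodamine fluorescence; potency means the concentration at half of the fitted maximal effect; 0% = enzyme reaction without inhibitor and -100% = no enzyme wells; top concentration of the series not given in the record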
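Fluorescence-quenching assay: 15 nM Sfp-PPTase preincubated 15 min at room temperature with compound, then 5 uM rhodamine-CoA and 12.5 uM BHQ-2-labelled YbbR peptide added. Fluorescence (ex 525/em 598 nm) read at start and after 30 min; difference gives rate.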
gsp agonist: qHTS for Agonist of gsp, the Etiologic Mutation Responsible for Fibrous Dysplasia/McCune-Albright Syndrome: qHTS. gsp mutant cells, cAMP HTRF, 30 min; control for the full effect not named in the record. 340,000 tested, 0.13% active. Potency, µM (series often up to 76.9 µM), inactives show top-dose activation (cAMP increase), actives largely listed as activators; active = well fitted activation curve with a large enough effect; inconclusive = small, poorly fitted or top-dose-only effect, or another doubt; inactive = no such curve, though single readings can be large or run the other way; cell line not stated here;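 further: phosphodiesterase inhibitor Ro 20-1724 added with compounds to block cAMP breakdown; potency means the concentration at half of the fitted maximal effect; nearly all actives have a fitted effect of over 60% in size; about a fifth of the inactives were tested at one dose only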
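Cells stably selected in G418 were plated at 2000/well, grown 16-24 hr, then given compounds in DMSO with the PDE inhibitor […] (300 uM solution added) for 30 min at 37C; cAMP was read by HTRF.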
D2 potentiator: Beta-Arrestin HTS for Positive Allosteric Modulators of the Human D2 Dopamine Receptor: Potentiators; DiscoveRx D2 beta-arrestin cells, luminescence, 90 min; 100% = 57 uM dopamine signal; AID 624464, 2012; 360,000 tested, 0.23% active; potentiation, % (no concentration beside the values); active = potentiation of 50% or more; inconclusive = 30% to 50%; inactive = 30% or less;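 further: compound concentration not given in the record; tested on top of an EC20 dose of dopamine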
Target sequence (P14416 whole entry, looked up): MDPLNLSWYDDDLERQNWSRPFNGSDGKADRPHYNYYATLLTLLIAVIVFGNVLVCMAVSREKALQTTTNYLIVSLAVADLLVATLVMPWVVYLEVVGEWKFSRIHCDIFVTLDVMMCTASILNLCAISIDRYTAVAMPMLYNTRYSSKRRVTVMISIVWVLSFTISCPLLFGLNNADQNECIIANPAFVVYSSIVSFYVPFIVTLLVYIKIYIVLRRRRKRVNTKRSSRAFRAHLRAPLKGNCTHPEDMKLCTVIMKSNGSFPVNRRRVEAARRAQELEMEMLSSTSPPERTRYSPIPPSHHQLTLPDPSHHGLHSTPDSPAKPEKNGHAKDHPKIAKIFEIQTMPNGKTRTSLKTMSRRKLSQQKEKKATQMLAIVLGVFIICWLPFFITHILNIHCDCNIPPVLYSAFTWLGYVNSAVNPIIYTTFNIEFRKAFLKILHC
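PathHunter beta-arrestin assay in DiscoveRx D2 cells. Compounds were added with an EC20 of dopamine (50 nM final) for 90 min at 37 deg C. Luminescence was read 1 h after detection reagent, with 57 uM dopamine as the EC100 control.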
gsp antag: qHTS for Antagonists of gsp, the Etiologic Mutation Responsible for Fibrous Dysplasia/McCune-Albright Syndrome: qHTS; gsp-mutant cells, cAMP HTRF, 30 min; control for the full effect not named in the record; Potency, µM (doses to about 76.9 µM), without a hit: at the top dose activity change, negative = inhibition, usual class: inhibitors; 340,000 tested, 0.4% active; AID 624288, 2012; active = falling curve of any shape with a large fitted effect; inconclusive = falling curve, mostly with a smaller effect; inactive = flat or rising curve; cell line not stated here;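 further: intracellular cAMP measured with PDE inhibitor Ro 20-1724 present during compound exposure; potency means the concentration at half of the fitted maximal effect; on the % scale 0 is the no-effect control and ±100 the full control effect; nearly all actives have a fitted effect of over 65% in size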
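Cells in G418 medium, seeded 16-24 h, 37C; buffer exchange to DPBS + 1 mM CaCl2, 0.5 mM MgCl2, 0.05% BSA; cpds in DMSO + […] (300 uM stock), 30 min 37C; HTRF cAMP detection.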
Menin-MLL FL inh: qHTS Assay for Inhibitors Targeting the Menin-MLL Interaction in MLL Related Leukemias: Competition With Fluorescein Labeled MLL-derived Peptide | AID 1766, 2009 | 290,000 tested, under 10 active | Fluorescence polarization, fluorescein-MLL peptide displacement from menin | FP activity change, % at 61.4 µM; inconclusive = falling polarisation curve, or a change in total fluorescence; inactive = total fluorescence flat and polarisation flat or rising; no compound was filed as active; the % refers to the polarisation; negative = inhibition;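 further: % of control where 0% means no effect; inhibitors lower the polarisation; unlabelled MLL peptide was the positive control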
An asterisk follows results filed as active; ? = inconclusive; · = no result given; & = joins results of further samples; [ ] = another dose, or the depositor's remark. This is a random part of the collection (roughly 5.1% active in at least one column).

SMILES | ClpP mod | TRPV1 PAM | Sfp inh | gsp agonist | D2 potentiator | gsp antag | Menin-MLL FL inh
CN1/C(=C\C(=O)COC(=O)c2ccccc2O)C(C)(C)c2ccccc21 | -21.0% | 5.0 | -5.7% | -4.2% | -12.0 | -28.4% | 6.9
COc1cc(C)c(S(=O)(=O)Nc2ccccc2F)cc1C | 1.2% | 20.6 | 13.6% | -42.0%[inhibitor] | ? | 2.4% | -1.3
O=C(CSc1cccc[n+]1[O-])NCCCc1ccccc1 | -0.8% | -0.3 | -0.7% | 28.0% | -5.3 | 14.8% | -0.2
O=C(Oc1ccc(C(=S)N2CCOCC2)cc1)c1cc([N+](=O)[O-])cc([N+](=O)[O-])c1 | · | 4.9 | -4.0% | ? | 8.3 | -5.2% | 1.7
N/C(Cc1ccc([N+](=O)[O-])cc1)=N\OC(=O)c1ccco1 | 1.0% | 14.4 | 6.6% | 11.9% | 21.0 | 2.3% | -1.0
COc1cccc(NC(=O)Nc2nnc(Cc3ccc(OC)c(OC)c3)s2)c1 | -2.8% | ? | 6.3% | -7.8%[15.4 µM] | -5.7 | -9.8% | 4.2
CCOC(=O)C1(Cc2ccc(Cl)cc2)CCN(C(=O)C2=NNC(=O)CC2)CC1 | · | -9.4 | 3.7% | -2.5%[15.4 µM] | -4.6 | 5.0% | -0.3
O=c1[nH]cc(I)cc1I | -1.7% | 6.1 | 22.4µM* | ? | -8.9 | -3.2% | -0.6
O=C(N=C1N=C2C=CC(Br)=CN2Cc2ccccc21)c1ccc([N+](=O)[O-])cc1[N+](=O)[O-] | · | -5.0 | 0.0% | -8.1%[15.4 µM] | 27.2 | -5.6% | 5.8
O=C1C2C3CCC(C3)C2C(=O)N1c1ccc(OS(=O)(=O)c2ccccc2)cc1 (stereo unspecified) | · | 10.8 | 12.5% | -4.9%[15.4 µM] | -2.9 | -9.7% | 0.3
COCCNC(=O)COCc1cc(-c2ccc3c(c2)OCO3)on1 | -18.9% | 15.4 | 7.7% | 28.2% | -8.2 | 7.8% | 3.5
Cc1cc(C)nc(Nc2n[nH]c(-c3ccccc3C)n2)n1 | 1.6% | 0.6 | 5.6% | -10.1% | -9.0 | 13.1% | -2.1
COc1cccc(CNC(=O)CCC2CCCN(C(=O)c3cc(C)[nH]n3)C2)c1 (stereo unspecified) | · | 8.1 | -4.2% | -1.9% | -3.3 | 5.0% | 0.9
CN1C(=O)CSC1=Nc1ccc(Br)cc1 | -1.3% | -12.4 | 16.8% | 4.0%[15.4 µM] | -7.8 | 7.2% | 1.7
N#Cc1ccccc1COC(=O)c1ccc2c(c1)OCO2 | -1.0% | -12.2 | · | -1.8% | 4.0 | 3.0% | ·
O=C(NCCO)c1cc2ccccc2c(=O)s1 | -4.1% | -0.2 | 9.2% | 16.1% | -16.6 | 4.3%[15.4 µM] | 0.0
O=C(NCCc1ccccc1)C(=O)NN=C1CCCC1 | -0.8% | 11.3 | 9.5% | -0.1%[15.4 µM] | 0.9 | 8.1% | -0.1
O=C(CN1C(=O)NC2(CCCC2)C1=O)N1CCN(S(=O)(=O)c2cccc(C(F)(F)F)c2)CC1 | -3.4% | 4.0 | · | -15.9% | 5.5 | 8.0% | ·
CN1CCCC(OC(=O)c2ccc(C#N)cc2)C1 (stereo unspecified) | -0.8% | -1.0 | 1.6% | 26.9% | -4.3 | 4.1% | -1.4
CCOc1ccc(C(=O)NCCN(C)C)cc1 | -0.5% | 4.5 | 4.7% | -16.3% | -14.8 | 9.6% | 4.6
O=C(Nc1ccccc1)Nc1n[nH]c2nnc(-c3ccccc3)c(-c3ccccc3)c12 | 1.9% | 15.8 | 3.4% | · | 2.4 | ? | 1.1
O=C1/C(=C\c2ccc(Cl)cc2)CCC1CNc1ccc(Cl)cc1 (stereo unspecified) | 2.3% | · | · | ? | 9.8 | 2.8% | ·
COc1cc(NC(=O)CNc2cccc(S(=O)(=O)N3CCOCC3)c2)cc(OC)c1 | -10.1% | -0.3 | · | -70.3%[inhibitor] | 2.5 | -2.7% | ·
CCc1ccc(C(=O)NC(C(=O)O)C(C)C)cc1 (stereo unspecified) | -0.2% | 8.0 | 20.1% | 18.3% | -20.4 | 3.7% | 0.5
COc1ccc(C2CC(c3ccccc3)=NN2C(=O)CSc2nccc(=O)[nH]2)cc1 (stereo unspecified) | 0.7% | 5.4 | -8.6% | -14.1%[15.4 µM] | -4.8 | -62.1% | ?
CCOC(=O)CSc1nc2ccccc2c(=O)n1C | -3.2% | 27.0 | 14.1% | -18.0% | -16.4 | 9.1% | 2.5
CN(C(=O)COC(=O)C1CCN(S(=O)(=O)c2ccc3c(c2)OCCO3)CC1)C1CCCCC1 | 1.5% | 3.3 | · | -0.6% | -5.4 | 4.3% | ·
Cn1c(=O)[nH]c(=O)c2c1nc(SCCN1CCOCC1)n2CCCc1ccccc1 | -3.2% | 1.0 | -10.6% | 17.5% | -0.7 | -3.0% | 0.3
COc1ccc(C(=O)NNC(=O)CCc2nc3ccccc3c(=O)[nH]2)cc1 | · | · | · | -26.9% | -3.0 | 6.5% | ·
CCC1Nc2ncnc(N3CCN(c4ccccc4)CC3)c2N(Cc2ccc(Cl)cc2)C1=O (stereo unspecified) | -6.4% | 15.9 | · | · | -48.8 | -2.7% | ·
O=C(CSc1nc2ccccc2c(=O)n1-c1ccccc1)N1CCC1 | -1.1% | -14.3 | 11.5% | 2.0% | -1.8 | 2.2% | -7.4
CCOc1ccccc1N1CCN(C(=O)NCc2ccc(C)cc2)CC1 | · | 9.0 | 6.1% | -2.4%[15.4 µM] | -18.1 | · | -12.8
CC(C)OC(=O)CN1C(=O)c2ccccc2C1=O | -2.6% | -2.3 | 16.8% | 27.6% | -1.9 | 8.2% | -0.3
CC(=O)N(CCN(C)C)c1nc2cc3c(cc2s1)OCCO3 | -2.3% | -6.4 | 10.7% | 0.3% | -3.7 | -2.5% | ·
CCOC(=O)N1CCN(CC(O)COc2cc(C)ccc2C(C)C)CC1 (stereo unspecified) | -21.8% | 13.5 | -4.8% | -1.4% | -21.9 | -3.3% | 0.1
CN(C)c1ccc(C(C(=O)NC(C)(C)C)N(C(=O)c2csnn2)C2CC2)cc1 (stereo unspecified) | -1.7% | ? | -15.1% | -55.9%[inhibitor] | -1.5 | -6.0% | -1.4
COc1ccc(NC(=O)CSCC(=O)Nc2cccc3ncccc23)cc1 | 1.3% | -9.3 | · | ? | -16.1 | 10.2% | ·
O=C(CN1CCN(C(=O)c2ccccc2)CC1)Nc1ncc(Br)cc1Br | -1.6% | -18.4 | -2.3% | 4.2% | -26.9 | -2.9%[15.4 µM] | -1.5
Cc1ccc(/C=N/NS(=O)(=O)c2ccc([N+](=O)[O-])cc2)o1 | -3.7% | -1.6 | 2.0% | 19.6% | 12.3 | 5.0% | 4.0
CCOc1cc(N2CCOCC2)c(OCC)cc1NC(=O)c1ccc(S(C)(=O)=O)cc1 | · | 10.7 | 9.6% | -16.7%[15.4 µM] | 2.1 | -13.1% | 8.4
CCc1ccc(NC(=O)CSCCO)cc1 | 0.5% | -5.6 | 17.5% | -48.6%[inhibitor] | 9.7 | 5.5% | 4.7
CCc1nnc(NC(=O)CN2C(=O)/C(=C/c3cc(OC)c(OC)c(OC)c3)SC2=S)s1 | 0.4% | 20.9 | 50.1µM* | 4.5%[15.4 µM] | -15.5 | -8.3% | 17.7
CCc1ccccc1S(=O)(=O)c1c(C)cc(C)nc1Cl | 3.5% | 0.6 | 9.0% | 4.8% | -4.9 | -11.3% | 2.2
CCSc1nc(C)cc(C)c1S(=O)(=O)c1ccccc1C | -3.2% | 3.4 | -18.4% | -4.1% | -9.9 | 10.8%[15.4 µM] | 3.2
COc1ccc(OC)c(NC(=O)C2CC(=O)n3ncnc3N2)c1 (stereo unspecified) | -1.6% | -23.9 | -3.5% | ? | -7.7 | 9.6% | 1.5
COc1ccc(CC(=O)Nc2ccc(S(=O)(=O)N3CCN(C)CC3)cc2)cc1 | 2.8% | -4.7 | · | -7.6% | 9.7 | 8.7% | ·
COc1ccc(CNC(=O)CN(c2ccc(OC)cc2)S(=O)(=O)c2c(C)[nH]c(=O)[nH]c2=O)cc1 | -0.1%&1.3% | -0.8 | 19.6% | -20.5% | -3.4 | 0.8% | 0.2
CN(Cc1cn(C)nc1-c1ccccc1F)CC1CCCCO1 (stereo unspecified) | 0.0% | -2.5 | 19.4% | -7.8% | -9.0 | 4.7% | -2.3
CCNC(=S)N1CC(C)OC(C)C1 (stereo unspecified) | 0.3% | 1.6 | -4.0% | ? | -3.2 | 3.2% | 3.8
CCCOc1ccc(N2C(=O)C3C(C(C)C)NC4(C(=O)c5ccccc5C4=O)C3C2=O)cc1 (stereo unspecified) | 0.4% | 0.8 | -1.7% | 15.8% | -9.4 | -10.4% | ?
CN(C)S(=O)(=O)c1ccc2oc(SCC(=O)Nc3ccccc3F)nc2c1 | -2.0% | 3.9 | 16.9% | -1.8% | -11.8 | -5.5% | 3.1
O=C(O)c1ccc(COc2cccc(CO)c2)cc1 | -0.7% | 26.7 | 14.4% | -15.3% | -2.6 | 0.6% | 1.5

An excerpt from above in order of the Sfp inh value, falling:
| SMILES | Sfp inh |
| --- | --- |
| CN(C)S(=O)(=O)c1ccc2oc(SCC(=O)Nc3ccccc3F)nc2c1 | 16.9% |
| O=C(O)c1ccc(COc2cccc(CO)c2)cc1 | 14.4% |
| COc1ccc(OC)c(NC(=O)C2CC(=O)n3ncnc3N2)c1 (stereo unspecified) | -3.5% |

Screening data deposited in PubChem BioAssay by National Center for Advancing Translational Sciences (NCATS).
